MgrA DNA FP = S. aureus MgrA activity modulators, primary screen, biochemical, S. aureus Newman, fluorescence polarization | MgrA-DNA binding | inhibition, %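 (about 10 µg/mL by stock and volumes)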 | hit rate 0.13% among 84,000 | AID 602314, 2012;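 active = above 50% in either of two replicates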;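 note: 0% = protein plus DNA without compound and 100% = DNA alone without protein; higher means less MgrA bound to DNA so lower polarization; one replicate is shown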
Sa helicase inh = inhibitors of S. aureus replicative helicase, primary screen, biochemical, fluorescence unwinding readout; purified S. aureus helicase, fluorescence unwinding assay; about half of the hits fall short of the stated cut; inhibition, %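 (tested at about 80 µM)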; hit rate 0.05% among 120,000; AID 485395, 2010;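 active = both duplicates at 50% or more, or one of them with a favoured structure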;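 note: 0% = mean of negative control wells and 100% = mean of positive control wells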
An asterisk follows results filed as active. This is a subset, so the mix of outcomes need not match the whole.

For O=C(NC(=S)Nc1ccc(N2CCCCC2)cc1)c1ccccc1 the results were MgrA DNA FP 1.1 and Sa helicase inh -14.
Screening O=C(O)COc1cccc(/C=C2/SC(=Nc3ccccc3)NC2=O)c1 returned MgrA DNA FP 0.5.
CCN(C(=O)c1cc2c(=O)[nH]c3ccc(C)cc3c2s1)c1ccccc1 was read as MgrA DNA FP 0.2 and Sa helicase inh 10.
For OC1(c2ccccc2)CN(c2ccccc2)C2=[N+]1CCCC2 (stereo unspecified) the results were Sa helicase inh -2.
`CC(C)(C)C(=O)/C(C#N)=C/Nc1cccc2nsnc12` gave Sa helicase inh 13.
For COC(=O)COc1ccc(/C=C2\C(=O)NC(=O)N(c3ccc(C)cc3)C2=O)cc1OC the results were MgrA DNA FP 1.4.
Screening NNC(=O)c1ccc2nsnc2c1 returned MgrA DNA FP -0.4.
Screening Cn1c(=O)cc(OCCCC(=O)NCC2(c3ccccc3)CCCC2)c2ccccc21 returned MgrA DNA FP 0.5 and Sa helicase inh 18.
Screening N#CCCS(=O)(=O)c1ccc2[nH]c(=O)c(=O)[nH]c2c1 returned Sa helicase inh -4.
`CCC(C)NC(=O)C1CCN(S(=O)(=O)c2ccc3nc4c(c(C(=O)O)c3c2)CCCC4)CC1` (stereo unspecified) gave MgrA DNA FP -2.6 and Sa helicase inh 12.
For O=C(CSc1ccc(C(F)(F)F)cc1[N+](=O)[O-])Nc1ccc(F)cc1 the results were MgrA DNA FP -2.0.
For Cn1c2ccccc2c2cnn(CC(=O)NC3CCCC3)c(=O)c21 the results were Sa helicase inh -12.
For O=S(=O)(c1ccccc1)N1CCN(C(=S)NCc2ccccc2)CC1 the results were Sa helicase inh 8.
CCOc1ccc(NC(=O)c2ccc(-n3cnnc3)cc2)cc1 was read as MgrA DNA FP 2.8 and Sa helicase inh 7.
For NCCCN1Cc2ccccc2C1 the results were MgrA DNA FP -3.1 and Sa helicase inh -3.
For O=C(OCC(=O)N1CCC(Cc2ccccc2)CC1)c1n[nH]c2ccccc12 the results were MgrA DNA FP 0.2 and Sa helicase inh 5.
Screening CCC1Oc2nc(SC)nnc2-c2ccccc2N1C(=O)c1ccccc1 (stereo unspecified) returned MgrA DNA FP 0.8 and Sa helicase inh 12.
O=C(c1ccco1)N1CCN(C(=O)C2CCCc3c2[nH]c2ccc(Cl)cc32)CC1 (stereo unspecified) was read as MgrA DNA FP 1.8 and Sa helicase inh 7.
O=C(N/C(=C\c1ccc(O)cc1)C(=O)N1CCCCC1)c1ccccc1 was read as MgrA DNA FP -2.7 and Sa helicase inh 3.
For Cc1oc2ccc(OCc3ccc(Cl)cc3)cc2c1C(=O)O the results were Sa helicase inh 41.

Among those listed so far, two have an aryl thioether with sulfur outside any ring.
For O=C(CSc1ccc(C(F)(F)F)cc1[N+](=O)[O-])Nc1ccc(F)cc1 the results were MgrA DNA FP -2.0.
Screening CCC1Oc2nc(SC)nnc2-c2ccccc2N1C(=O)c1ccccc1 (stereo unspecified) returned MgrA DNA FP 0.8 and Sa helicase inh 12.

(more compounds)
Screening COCCN1Cc2cccc(C(=O)Nc3ccc(C(C)C)cc3)c2C1=O returned Sa helicase inh 38.
For CCOC(=O)CSC(=S)Nc1c(C)cc(C)cc1C the results were MgrA DNA FP 1.8.
Screening CCc1ccc(Nc2nc(-c3cc4ccccc4oc3=O)cs2)cc1 returned MgrA DNA FP -2.1 and Sa helicase inh -2.
Cc1ccc(NC(=O)CN2Cc3ccccc3C2=O)cc1 was read as Sa helicase inh -15.
For O=C(O)CCCN1C(=O)C(O)=C(C(=O)/C=C/c2ccccc2)C1c1ccccc1 (stereo unspecified) the results were MgrA DNA FP 3.4 and Sa helicase inh 1.
`Cc1csc(NC(=O)CCCN2C(=O)/C(=C\c3ccco3)SC2=S)n1` gave Sa helicase inh -22.
`COc1cc(NC(=O)Cc2ccc(F)cc2)cc(S(=O)(=O)c2ccc(Cl)cc2)c1` gave MgrA DNA FP -1.4 and Sa helicase inh 9.
`Cc1nn(CC(=O)Nc2ccc(Cl)cc2Cl)c(=O)c2ccccc12` gave MgrA DNA FP 0.3.
`CCCc1cc(=O)[nH]c(-c2cccc(C)c2)n1` gave MgrA DNA FP -1.1.
For COC(=O)C1(C#N)C(c2ccccc2)C1(C(=O)OC)C(=O)OC (stereo unspecified) the results were Sa helicase inh 13.
CCc1ccc(C2C3=C(Nc4c2c(=O)n(C)c(=O)n4C)c2ccccc2C3=O)cc1 (stereo unspecified) was read as Sa helicase inh -2.
`O=C1OC(c2ccco2)=N/C1=C1/C=C(c2cccs2)Oc2ccccc21` gave Sa helicase inh 35.
Screening CC(C(=O)NN)n1nnc(N2CCOCC2)n1 (stereo unspecified) returned MgrA DNA FP -1.6.
Screening CN(C)C(=O)COC(=O)c1cccc(S(=O)(=O)N2CCN(c3ccccc3)CC2)c1 returned Sa helicase inh -8.
CC(=O)N1CCN(C(=O)c2c(Cl)nc3sccn23)CC1 was read as MgrA DNA FP 3.2 and Sa helicase inh 14.
`CC(C)OC(=O)c1cccc(NC(=O)c2ccc(Br)cc2)c1` gave MgrA DNA FP -0.5 and Sa helicase inh 21.
Screening Nc1c(C(=O)c2ccc(F)cc2)oc2ccccc12 returned Sa helicase inh 0.
Cc1nnc(SCC(=O)N(C)CC(=O)Nc2ccc(F)cc2)n1Cc1ccccc1 was read as Sa helicase inh -1.
CC1CCN(S(=O)(=O)c2ccc3[nH]cc(C(=O)NCc4ccccc4Cl)c(=O)c3c2)CC1 was read as MgrA DNA FP 0.6 and Sa helicase inh 7.
For C=CCSC1=C(C#N)C(c2ccccc2OCC)C(C#N)C(=O)N1 (stereo unspecified) the results were MgrA DNA FP -0.1 and Sa helicase inh 11.
C=CCSc1nccc(-c2sc3ccc(Cl)cc3c2C)n1 was read as MgrA DNA FP -0.2.
COc1ccc(NC(=O)c2ccccc2C(=O)N2CCCCC2)cc1 was read as MgrA DNA FP -1.5 and Sa helicase inh 11.
Screening Cc1ccc(N2Cc3ccccc3C2)cc1C returned Sa helicase inh 6.
`CNC(=O)CN1CCCC(c2nc3ccccc3[nH]2)C1` (stereo unspecified) gave Sa helicase inh 17.
`O=c1ncn(Cc2cccs2)cc1-c1ccccc1` gave MgrA DNA FP 0.7.
`CCOC(=O)c1cnc(-c2ccccc2)[nH]c1=O` gave Sa helicase inh -3.
O=C(O)C(Cc1ccccc1)NC(=O)C(c1ccccc1)c1ccccc1 (stereo unspecified) was read as MgrA DNA FP 0.0 and Sa helicase inh 4.
Screening COc1ccc(-c2cn3c4c(=O)n(C)c(=O)n(C)c4nc3n2CCCO)cc1 returned Sa helicase inh 5.
Screening O/N=C/c1ccccc1C(F)(F)F returned Sa helicase inh -1.
Screening O=C1NCCc2c1[nH]c1ccc(OCc3ccccc3)cc21 returned MgrA DNA FP -1.0.
For CC(=O)N1CCC(c2nc(-c3ccc(C(F)(F)F)cc3)no2)CC1 the results were MgrA DNA FP 0.6.
CC1(C)CC2CC(C)(CN2c2nc(N)c(C#N)c(CC#N)c2C#N)C1 (stereo unspecified) was read as Sa helicase inh -19.
Screening COC(=O)C(C)Oc1ccc2c(-c3ccccc3)cc(=O)oc2c1 (stereo unspecified) returned Sa helicase inh 14.
For Cc1cccc2c1cnn2C(=O)Nc1cc(F)ccc1F the results were Sa helicase inh 13.
For CCOC(=O)c1cn(S(=O)(=O)c2ccc(F)cc2F)nc1C(F)(F)F the results were MgrA DNA FP -3.8.
For Cc1ccc(-c2nnc(Nc3ccc(O)cc3)c3ccccc23)cc1S(=O)(=O)N(C)C the results were MgrA DNA FP 1.2 and Sa helicase inh 9.
`COC(=O)c1ccc(-c2ccco2)n1CC(=O)N1CCC(C(N)=O)CC1` gave Sa helicase inh 27.
N#CC(C#N)=C1CCN(c2ncc(C(F)(F)F)cc2Cl)CC1 was read as MgrA DNA FP 0.3.
CC(NCc1ccccc1)C(=O)Nc1ccccc1 (stereo unspecified) was read as Sa helicase inh 13.
COc1ccc(-c2c(C)c3cc(Cl)c(O)cc3oc2=O)cc1OC was read as MgrA DNA FP 0.3 and Sa helicase inh 12.
Screening COC(=O)c1sc(NC(=O)Cn2cnc3sccc3c2=O)c(C(=O)OC)c1C returned Sa helicase inh -7.
OC(CNCc1ccccc1)C12CC3CC(CC(C3)C1)C2 (stereo unspecified) was read as MgrA DNA FP -0.4 and Sa helicase inh 5.
Screening Cc1nc2c(C(=O)N(C)Cc3ccco3)c[nH]n2c(=O)c1Cc1ccccc1F returned Sa helicase inh -11.
`CCOc1ccccc1CNC(=O)Cn1ncc2c([nH]c3ccccc32)c1=O` gave Sa helicase inh -25.
For O=C(CCN1C(=O)C2C3C=CC(C3)C2C1=O)Nc1cccnc1 (stereo unspecified) the results were Sa helicase inh 9.
Screening COc1cc2cc(OCc3c(F)cccc3Cl)nc(C)c2cc1OC returned MgrA DNA FP -0.2.
Screening CCOC(=O)c1cc2ccc(OC(=O)c3ccco3)cc2oc1=O returned MgrA DNA FP 2.8 and Sa helicase inh 27.
`CCC(CC)NCc1oc2ccc(Cl)cc2c1-c1ccc(OC)cc1` gave MgrA DNA FP 0.0 and Sa helicase inh 10.
For O=c1[nH]c(=S)sc2ccccc12 the results were MgrA DNA FP 0.0 and Sa helicase inh 8.
Cc1ccc(NC(=O)CC2COc3ccccc3O2)cc1C (stereo unspecified) was read as MgrA DNA FP -1.8 and Sa helicase inh 7.
`Cc1cc(NC(=O)C(Cl)(Cl)Cl)n(-c2ccccc2)n1` gave MgrA DNA FP -1.4.
For O=C(c1ccc([N+](=O)[O-])cc1)c1cc2c(cc1Br)OCCO2 the results were MgrA DNA FP 2.9.
Screening CC(C)(C)c1cn2ccc3ccccc3c2n1 returned MgrA DNA FP 0.5 and Sa helicase inh -1.
O=C(O)c1cc2ccc3ccccc3c2s1 was read as MgrA DNA FP 1.5.
Screening COc1ccc(C2CC(C(F)(F)F)n3nc(C(=O)Nc4cccnc4Cl)c(Cl)c3N2)cc1OC (stereo unspecified) returned MgrA DNA FP 3.1.
`Cc1cnc(NC(=O)C2CCCC2)s1` gave Sa helicase inh -8.
`CC(=O)Nc1ccc(N2CCN(C(C)=O)CC2)cc1` gave Sa helicase inh 4.
For COc1ccc(N2CCN(CCCNC(=O)/C=C3\Sc4ccccc4NC3=O)CC2)cc1 the results were Sa helicase inh -2.
COCCCn1nnnc1SCC(=O)Nc1ccccc1 was read as MgrA DNA FP -0.3 and Sa helicase inh -8.
For O=C(Nc1ccccc1C(=O)Nc1ccc(F)cc1)c1ccco1 the results were MgrA DNA FP -1.8.

2 neighbouring entries from above, for reference:
COCCCn1nnnc1SCC(=O)Nc1ccccc1 was read as MgrA DNA FP -0.3 and Sa helicase inh -8.
For O=C(Nc1ccccc1C(=O)Nc1ccc(F)cc1)c1ccco1 the results were MgrA DNA FP -1.8.

Of the compounds above, 6 have two or more sulfur atoms.
For O=S(=O)(c1ccccc1)N1CCN(C(=S)NCc2ccccc2)CC1 the results were Sa helicase inh 8.
For CCOC(=O)CSC(=S)Nc1c(C)cc(C)cc1C the results were MgrA DNA FP 1.8.
`Cc1csc(NC(=O)CCCN2C(=O)/C(=C\c3ccco3)SC2=S)n1` gave Sa helicase inh -22.
C=CCSc1nccc(-c2sc3ccc(Cl)cc3c2C)n1 was read as MgrA DNA FP -0.2.
Screening COC(=O)c1sc(NC(=O)Cn2cnc3sccc3c2=O)c(C(=O)OC)c1C returned Sa helicase inh -7.
For O=c1[nH]c(=S)sc2ccccc12 the results were MgrA DNA FP 0.0 and Sa helicase inh 8.

The list goes on.
O=c1[nH]nc(SCc2ccccc2)c(=O)[nH]1 was read as Sa helicase inh 4.
Screening O=C(NCc1noc2ccccc12)N1CCc2ccccc21 returned MgrA DNA FP 1.1 and Sa helicase inh 2.
For CCCCn1c(=O)[nH]c(=O)c2c1nc(CN1CCN(S(=O)(=O)c3ccccc3)CC1)n2CC the results were Sa helicase inh -9.
Screening CC(=O)N(C(C)=O)N1C(=O)c2cccc3c(N4CCOCC4)ccc(c23)C1=O returned Sa helicase inh -126.
`COC(=O)c1cc(Cl)c(NC(=O)c2ccco2)cc1OC` gave Sa helicase inh 13.
COC(=O)C1Cc2ccccc2CN1Cn1c(SC)nc2ccccc21 (stereo unspecified) was read as Sa helicase inh -5.
CCOc1ccc(CNC(=O)C2CCCN(c3nnc(-n4cccc4)s3)C2)cc1 (stereo unspecified) was read as Sa helicase inh -9.
Cc1[nH]c(-c2ccc(F)cc2)cc1C(=O)NC1CCCC1 was read as Sa helicase inh -19.
For COc1ccc2c(Cl)c(-c3nnco3)sc2c1 the results were Sa helicase inh 7.
O=C(O)COCC(=O)NC1Cc2ccccc2C1 was read as MgrA DNA FP -2.2.
For Cc1ccc(C2=NN(C(=O)CCC(=O)O)C(c3ccc(Br)cc3)C2)cc1 (stereo unspecified) the results were MgrA DNA FP -0.6.
COc1ccccc1N1CCN(S(=O)(=O)c2ccc(S(=O)(=O)NC3CCCC3)cc2)CC1 was read as MgrA DNA FP -2.7 and Sa helicase inh 2.
For COc1ccc(NC(=O)CCCn2c(=O)c3sccc3n(CC(=O)c3ccccc3)c2=O)cc1 the results were Sa helicase inh 8.
For O=C(O)CCn1cc(C(=O)O)c(-c2ccccc2)n1 the results were Sa helicase inh -7.
`O=C(NCc1ccco1)c1ccc(S(=O)(=O)N2CCCc3ccccc32)cc1` gave MgrA DNA FP 3.0 and Sa helicase inh 0.
COc1ccc(C(CC(=O)O)c2ccc(OC)c(OC)c2)cc1OC was read as Sa helicase inh 3.
`CCn1c(=N)n(CC(=O)c2ccc(-c3ccccc3)cc2)c2ccccc21` gave Sa helicase inh -29.
Screening Cc1ccnc(NC(=O)c2sc3cc(Cl)ccc3c2Cl)c1 returned MgrA DNA FP -3.0 and Sa helicase inh -9.
`CC(C)CCN1C(=O)c2ccc(-c3nc4ccccc4c(=O)o3)cc2C1=O` gave Sa helicase inh 7.
O=C(Sc1ccc(Cl)cc1)c1cnc2n(c1=O)CCS2 was read as Sa helicase inh 24.
`O=C(NCC(c1cccnc1)N1CCOCC1)C1CCCCC1` (stereo unspecified) gave MgrA DNA FP -1.2 and Sa helicase inh 7.
